StopGo FLuc: FMDV 2A StopGo reporter, firefly signal | HEK cells with a luciferase reporter of 2A StopGo recoding | actives 0.23% (n = 120,000) | AID 1745856 | Potency, µM (series often up to 57.5 µM), for inactives: at the top dose signal change, negative = less light; active = well fitted falling curve with a large enough effect; inconclusive = small, poorly fitted or top-dose-only effect; inactive = no such curve, though single readings can be large or run the other way; further: nearly all actives have a fitted effect of over 60% in size; overnight with compound
StopGo RLuc: lowers the Renilla signal of an FMDV 2A StopGo reporter. HEK cells with a luciferase reporter of 2A StopGo recoding. Potency, µM (titrated, usually from 57.5 µM), inactives show at the top dose signal change, negative = less light. actives 0.32% (n = 120,000). AID 1745857; active means well fitted falling curve with a large enough effect; inconclusive means small, poorly fitted or top-dose-only effect; inactive means no such curve, though single readings can be large or run the other way; further: nearly all actives have a fitted effect of over 55% in size; overnight with compound
The depositor's hits bear a star; ? = inconclusive; & = joins results of further samples; [ ] = remark or other dose. On the % scale 0 is the no-effect control and ±100 the full control effect; potency means the concentration at half of the fitted maximal effect. A portion of the library, so the mix of outcomes need not match the whole.

SMILES	StopGo FLuc	StopGo RLuc
CSc1cccc(NC(=O)c2n[nH]c(=O)c3ccccc23)c1	70%[activator]	-16%
CC(C)(CO)NC(=O)c1ccc(Cl)cc1	1%	9%
Cc1cn(C)c(CC(=O)Nc2cccc(C#N)c2)c1C(=O)O	-11%	3%
CCC1CCCCN1S(=O)(=O)c1cc2c3c(c1)CC(=O)N3CCC2 (stereo not given)	-20%	-11%
CN(C)C(=O)COc1ccccc1-c1noc(-c2ccc(S(=O)(=O)NC3CC3)o2)n1	46%[activator]	135%[activator]
CCC(=O)Nc1ccc2oc(-c3cccc4c(Cl)cccc34)nc2c1	-1%	-3%
CC(C)C(NC(=O)c1ccccc1)c1nnc(SCC(=O)c2ccc(F)cc2)n1C (stereo not given)	-1%	-11%
COC(=O)C1=C(C)N(c2ccc(F)cc2)C(=O)CC1C(=O)Nc1ccc(F)cc1 (stereo not given)	6%	-1%
Cc1cc(CN2CCN(Cc3nc(C(C)C)no3)CC2)on1	-1%	0%
CCCc1c(C(=O)OCC)[nH]c2c1C(=O)CC(c1ccc(F)cc1)C2 (stereo not given)	-1%	22%
Cc1cc(C)cc(NC(=O)CSc2oc(-c3cccs3)nc2S(=O)(=O)c2ccccc2)c1	-8%	27%
COc1cccc(CNC(=O)CN2N=C(c3ccc(C)cc3)CCC2=O)c1	-22%	-16%
COc1ccc(-c2coc3c(C)c(OCCN4CCC(C)CC4)ccc3c2=O)cc1	0%	-11%
O=C(NCc1cccc(F)c1)c1cccc(NC(=O)c2nsc3ccccc23)c1	139%[activator]	127%[activator]
FC(F)(F)c1ccc2nnc(SCc3c(Cl)cccc3Cl)n2c1	-1%	2%
CC(=O)c1c(C)[nH]c(C(=O)C(C)Sc2ccccc2Cl)c1C (stereo not given)	?	?
COc1ccc(C(=O)OCC(=O)Nc2ccccc2)c(C)c1	94%[activator]	2%
O=C(c1cc(-c2cccs2)on1)N1CCCC1c1cccc(F)c1 (stereo not given)	0%	-3%
COc1ccc(-c2noc(COC(=O)c3nn(C)c4ccccc34)n2)cc1	0%	29%
Cc1cc(C)n(-c2ccc(=O)n(CC(=O)Nc3ccccc3)n2)n1	26%	25%
O=C(NCCc1cccnc1)c1ccc(F)cc1F	163%[activator]	8%
CCc1ccccc1NC(=O)c1ccc2c(Cl)c3c(nc2c1)CCCC3	80%[activator]	-1%
COc1ccc(-c2nc(S(=O)(=O)c3ccccc3)c(N3CCCCC3)o2)cc1	-3%	-8%
c1ccc(C2CC2)c(OCC2=NCCN2)c1	-3%	-3%
CCC(NCc1ccc(C(N)=O)cc1)c1ccc(Cl)cc1 (stereo not given)	2%	3%
SMILES	StopGo FLuc	StopGo RLuc
Cc1ccccc1CSc1ncc(CO)n1Cc1ccc(F)cc1	2%	-3%
COc1ccc2nc(NC(=O)c3ccc4c(c3)NC(=O)CS4)sc2c1	69%[activator]	21%
Cc1cccc(NC(=O)CSc2c(C)cnc3c2c(=O)n(C)c(=O)n3C)c1C	-15%	-11%
CCN1Cc2nnn(CC3CCCCC3)c2-c2ccccc2S1(=O)=O	-4%	79%[activator]
COc1ccc2c(c1)cc(C(=O)Nc1ccc(C)cc1C)n2C	0%	-9%
COc1ccccc1CNC(=O)c1cc(S(=O)(=O)N2CCCCCC2)cn1C	-6%	27%
COc1ccc(CNS(=O)(=O)c2ccc(-c3ccc(=O)[nH]n3)o2)cc1	1%	-8%
Cc1ccc(-c2nnn(CC(=O)N3N=C(c4cccs4)CC3c3cccs3)n2)cc1 (stereo not given)	2%	9%
N#Cc1c[nH]n2c(NC3CCCCC3)c(-c3ccccc3F)nc12	-16%	-5%
Cc1c(NC(=O)c2ccc([N+](=O)[O-])o2)cccc1-c1nc2ccccc2o1	-16%	?
CCN1CCC(N(Cc2ccc3c(c2)OCO3)C(=O)Nc2ccc(OC)cc2OC)CC1	-13%	-7%
CCOc1ccc(-c2cc3c(=O)n(Cc4nc(-c5ccc(OC)cc5OC)oc4C)ccn3n2)cc1Cl	129%[activator]	-1%
Cc1cc(C(=O)Cn2c(=O)c3c(ncn3CCC(C)C)n(Cc3ccccc3)c2=O)c(C)n1C	0%	0%
CCOc1ccc(C(C)NC(=O)c2ccc(NS(=O)(=O)c3ccc(F)cc3)cc2)cc1OCC (stereo not given)	-4%	6%
Cc1cc(NC(=O)c2cnc3c(-c4ccccc4)c(C)nn3c2C)ccc1Br	-14%	23%
O=C(CC1SC(c2cc3ccccc3oc2=O)=NC1=O)Nc1ccccc1 (stereo not given)	-2%	-28%
Cc1ccc(/C=C/C(=O)c2cccs2)cc1	166%[activator]	37%[activator]
COc1ccc(CCNC(=O)Cc2c(C)c3ccc(OC)c(OC)c3oc2=O)cc1	9%	-5%
Cc1oc(-c2cccs2)nc1CN1CCNC(=O)C1	0%	-8%
CCCc1cc(C(=O)OCC(=O)c2ccc3c(c2)OCCO3)sc1C	8%	9%
COc1ccc(Oc2c(C)oc3cc(OCC(=O)N4CCN(CCO)CC4)ccc3c2=O)cc1	0%	-2%
CCn1nc(C(=O)Nc2nccs2)c2ccccc2c1=O	14%	10%
COC(=O)c1cc2sccc2n1Cc1nc(-c2ccc(Cl)cc2)oc1C	-4%	6%
CC(C)CCn1c(N2CCN(Cc3c(F)cccc3Cl)CC2)nc2c1c(=O)[nH]c(=O)n2C	16%	8%
Cc1ccc(S(=O)(=O)Nc2cc3c(cc2N2CCOCC2)n(C)c(=O)n3C)cc1	-5%	12%
SMILES	StopGo FLuc	StopGo RLuc
COc1ccc(CNC(=O)CSc2nnc(C)n2C2CC2)cc1OC	-3%	0%
COC(=O)c1c(C)[nH]c(-c2csc(NC3CC3)n2)c1C	305%[activator]	54%[activator]
Cc1cc(OCc2n[nH]c(=S)n2C)cc(C)c1Cl	0%	5%
Oc1ccc(OCc2ccccc2)cc1	-13%[11.5 µM]	-13%
O=C(NCc1ccc(F)cc1)C1(Cc2nc3ccccc3s2)CCCC1	154%[activator]	46%[activator]
O=C(NC1CCCC1)C1CC(c2ccc(F)cc2)=NO1 (stereo not given)	120%[activator]	-2%
COc1ccc(CCNC(=O)c2ccc(-n3c(C)cc4c3CCCC4)cc2)cc1OC	8%	3%
O=C(Nc1ccc2nc(SCCOc3ccccc3)sc2c1)c1ccco1	42%[activator]	-5%
O=C(COC(=O)c1ccc(-c2nnc(-c3ccccc3)o2)cc1)c1ccc(F)cc1	135%[activator]	12%
N#Cc1ccc(COC(=O)CSC(=S)N2CCOCC2)cc1	-10%	-6%
COc1cccc2cc(C(=O)Nc3cccc(O)c3)c(=O)oc12	0%	-5%
Cc1ccccc1CNC(=O)c1ccc(-c2ccc(S(=O)(=O)N3CCCC3)cc2)cc1	-24%	28%
Cc1ccc(Cl)cc1N1CCN(CCNC(=O)Nc2ccc(Cl)cc2)CC1	-4%	-1%
CC(C)C(=O)NC(Nc1cccc2ccccc12)C(Cl)(Cl)Cl (stereo not given)	34%	-23%
CC(COc1cc(F)cc(C#N)c1)CN1CCC(C(O)(c2ccccc2)c2ccccc2)CC1 (stereo not given)	-10%	-2%
N#Cc1c(SCC(=O)N2CCOCC2)nc(N2CCCC2)c2c1CCCC2	4%	23%
CC1CCCCC1NC(=O)c1cc(Sc2cccc(Cl)c2)nc2ccccc12 (stereo not given)	5%	248%[activator]
CCOc1cc(/C=C/C(=O)O)cc(Cl)c1OC	-2%	-4%
CCN(CC(=O)NCc1cccs1)C(=O)c1cccc(S(=O)(=O)N(CC)c2ccccc2)c1	-7%	50%[activator]
CCN(C(=O)C1CCN(S(=O)(=O)c2c(C)noc2/C=C/c2ccc(C)cc2)CC1)c1cccc(C)c1	-15%	-10%
Cn1nc(C(=O)NCc2cccc(Cl)c2)c2c1-c1ccccc1OC2	10%	29%
COc1ccc(OC)c(NC(=O)COCc2cc(-c3ccco3)on2)c1	-9%	-5%
COc1ncccc1CNC(=O)c1ccc2c(c1)NC(=O)CS2	-3%	9%
CCOc1ccc(NC(=O)N2CCN(Cc3cc(=O)n4nc(-c5ccc(OC)cc5)sc4n3)CC2)cc1	-7%	-16%
Cc1oc(-c2ccccc2)nc1C(=O)Nc1ccc(F)cc1	18%	15%
SMILES	StopGo FLuc	StopGo RLuc
COc1ccccc1CNC(=O)Cn1ccc2c(Cl)cccc21	4%	-4%
O=C1CC(c2ccccc2F)Cc2nc(N3CCN(c4cccc(C(F)(F)F)c4)CC3)ncc21 (stereo not given)	?	?
Cc1cccc(OCC(=O)Nc2ccc(-c3nc4ccc(C)cc4o3)cc2)c1	69%[activator]	-7%
CCN1CCN(C(=O)NC(c2ccc(C)c(F)c2)C(Cl)(Cl)Cl)CC1 (stereo not given)	0%	-9%
COC(=O)c1cccn2cc(CN3CCN(S(=O)(=O)c4cccc(C(F)(F)F)c4)CC3)nc12	19%	8%
COCCCNC(=O)c1sc2nc(C)c(C(=O)Nc3ccc(Cl)cc3)c(-c3ccc(Br)cc3)c2c1N	-11%	37%[activator]
COc1cccc(-n2c(-c3ccco3)nc3c(cnn3-c3ccc(Cl)cc3)c2=O)c1	-12%&7%	-10%&-4%
CC1CCN(S(=O)(=O)c2ccc3c(c2)N(CC(=O)N(C)Cc2ccccc2)C(=O)CO3)CC1	-19%	36%[activator]
COc1ccc(-c2nn3c(CCCC(=O)O)nc4ccccc4c3nc2=O)cc1	156%[activator]	11%
COC(=O)c1cc(NC(=O)C2CCC2)cc(C(=O)OC)c1	?	9%
CCCS(=O)(=O)N1CCCC(C(=O)NCCCOC)C1 (stereo not given)	-20%	-10%
O=C(NCc1ccc(F)cc1)c1ccc(-c2ccccc2)cc1	0%	7%
COc1cc(/C=N/O)ccc1OCC(=O)NN	53%[activator]	84%[activator]
CC(C)c1ccc(NC(=O)Cn2cc(C#N)c3ccccc32)cc1	0%	-5%
Cc1cc(C)c2c(=O)c3c(oc2c1)C(=O)N(Cc1ccco1)C3c1ccccc1F (stereo not given)	7%	3%
COCc1ccccc1CNC(=O)c1nccnc1N	5%	-7%
O=C(Nc1ccc(Cl)cc1Cl)c1cc(S(=O)(=O)N2CCN(c3ccccc3F)CC2)ccc1F	5%	24%
O=C(Nc1ccccc1Br)c1cc2cc(Br)ccc2oc1=O	15%	-5%
COc1ccc(NC(=O)C2CCN(c3nc4ccccc4nc3OC)CC2)cc1OC	-10%	-11%
O=C(CS(=O)(=O)c1ccc(Br)cc1)c1ccccc1	7%	85%[activator]
O=C(N/N=C(/c1ccccc1)c1cccnc1)c1cccs1	46%[activator]	8%
CCn1cc(S(=O)(=O)c2cccc(Cl)c2)c(=O)c2cc(F)c(N3CCN(C)CC3)cc21	3%	30%
N#Cc1nc(Cc2ccccc2)oc1N1CCCCC1	227%[activator]	16%
CCn1c(CSc2nnc(C3CC3)o2)nc2cc(S(=O)(=O)N(C)C)ccc21	-5%	57%[activator]
COc1ccc(C(=O)Oc2ccccc2Br)cc1Br	2%	7%

Record cards, from the list above. Values in the order: StopGo FLuc	StopGo RLuc
`O=C1CC(c2ccccc2F)Cc2nc(N3CCN(c4cccc(C(F)(F)F)c4)CC3)ncc21` (stereo not given) in the list: ?	?
`Cc1cccc(OCC(=O)Nc2ccc(-c3nc4ccc(C)cc4o3)cc2)c1` in the list: 69%[activator]	-7%

3 of the compounds above, in markdown.
| Structure | StopGo FLuc | StopGo RLuc |
| --- | --- | --- |
| COc1ccc(-c2nc(S(=O)(=O)c3ccccc3)c(N3CCCCC3)o2)cc1 | -3% | -8% |
| c1ccc(C2CC2)c(OCC2=NCCN2)c1 | -3% | -3% |
| CCC(NCc1ccc(C(N)=O)cc1)c1ccc(Cl)cc1 (stereo not given) | 2% | 3% |

Going on with the list:
SMILES	StopGo FLuc	StopGo RLuc
O=C(Cn1cc(C(=O)C2CC2)c2ccccc21)Nc1ccc(Br)cc1	-5%	4%
CC(=O)Nc1ccc(OCC(O)CNC(C)C)cc1 (stereo not given)	-11%	-14%
CCc1ccc(OCCn2c(C3CC(=O)N(Cc4ccc(F)cc4)C3)nc3ccccc32)cc1 (stereo not given)	-2%	?
CC1=C(C(=O)Nc2ccc(C)cn2)C(c2ccc(N(C)C)cc2)C2=C(CCCC2=O)N1 (stereo not given)	8%	60%[activator]
O=C(CCn1c(=O)c2ccccc2n(Cc2cccc(F)c2)c1=O)NCc1ccc2c(c1)OCO2	1%	5%
O=C(COC(=O)c1ccccc1Sc1ccc(C(F)(F)F)cc1[N+](=O)[O-])NC1CCCc2ccccc21 (stereo not given)	-6%	-12%
CCOC(=O)c1ccc(Oc2coc3cc(OC)ccc3c2=O)cc1	0%	2%
Cc1ccc(NC(=O)CCCn2c(=O)c3cccn3c3cccnc32)c(Cl)c1	-13%	-4%
CCOc1ccc(C(=O)c2c(N)c(-c3nc(-c4ccc(OCC)cc4)cs3)c3ccccn23)cc1	-7%	5%
Cc1ccc(Nc2nc3ccccc3nc2NS(=O)(=O)c2ccc(F)cc2)cc1F	?	?
O=C(Nc1ccc(S(=O)(=O)N2CCCCCC2)cc1)c1csnn1	94%[activator]	39%[activator]
C/C(=N/Nc1ccc(Cl)cc1)c1ccc(Br)s1	21%	8%
CC(C)CC(=O)Nc1ccc2oc(-c3ccc(F)cc3Cl)nc2c1	116%[activator]	0%
Cc1ccc(NC(=O)Nc2c(NC3CCCC3)c3ccccc3oc2=O)cc1F	19%	-4%

3 entries from above in another layout.
SMILES: CCC1CCCCN1S(=O)(=O)c1cc2c3c(c1)CC(=O)N3CCC2 (stereo not given)
  StopGo FLuc: -20%
  StopGo RLuc: -11%

SMILES: CN(C)C(=O)COc1ccccc1-c1noc(-c2ccc(S(=O)(=O)NC3CC3)o2)n1
  StopGo FLuc: 46%[activator]
  StopGo RLuc: 135%[activator]

SMILES: CCC(=O)Nc1ccc2oc(-c3cccc4c(Cl)cccc34)nc2c1
  StopGo FLuc: -1%
  StopGo RLuc: -3%
